# Screens as filed in PubChem BioAssay.
# WNV NS2B-NS3 inh: WNV NS2B-NS3 proteinase inhibition. P06935. WNV NS2B-NS3 protease, fluorogenic substrate Ex360/Em465; stronger effect = lower value. z-score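 (tested at a level between 10 and 100 µM)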. 0.18% of 65,000 active;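 active means z-score at -3 or under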;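 further: score is relative to mean and spread of the compound wells of a plate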
# Target sequence (P06935 1371-1501 limits assumed): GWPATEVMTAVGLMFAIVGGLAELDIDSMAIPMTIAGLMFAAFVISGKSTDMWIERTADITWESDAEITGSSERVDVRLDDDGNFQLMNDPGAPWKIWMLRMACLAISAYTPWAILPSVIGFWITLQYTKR
# Target sequence (P06935 1502-1679 limits assumed): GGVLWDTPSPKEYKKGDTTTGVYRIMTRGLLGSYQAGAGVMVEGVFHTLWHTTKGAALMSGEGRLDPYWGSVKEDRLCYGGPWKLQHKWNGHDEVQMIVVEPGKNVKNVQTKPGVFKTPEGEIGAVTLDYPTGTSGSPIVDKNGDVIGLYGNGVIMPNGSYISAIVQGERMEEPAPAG
# MT1-MMP reporter: inhibitors of MT1-MMP promoter transcription, cell-based, luciferase reporter, luminescence (AID 618); calls from a first round at 10 µM; hits with a dose series show EC50 in µM; MT1-MMP promoter luciferase reporter cells, luminescence; 0.62% of 87,000 active;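 active means over half of the reporter light lost at 10 µM or EC50 under 50 µM; inactive means the rest and hits that failed the dose series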;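 further: actives suppress MT1-MMP promoter-driven transcription so potencies describe inhibitors; HT1080 fibrosarcoma cells; overnight exposure; toxic or luciferase-blocking compounds were not removed from the actives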
# Hsc70: Hsc70 inhibitors, probe displacement, primary screen, biochemical, fluorescence polarization (AID 568); 83,000 tested, under 10 active; Hsc70 fluorescence polarization, probe displacement; higher % means a stronger effect; strong numbers were not always called active; one-dose displacement, % at 20 µM; IC50 in µM for titrated hits;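 active means displacement above 50% without optical interference and an IC50 on retest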;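 further: ATPase domain with a fluorescein-tagged ATP probe; 0% = vehicle and 100% = excess ADP; read after one hour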
# Active calls of the source: *; i = inactive; . = not tested or not shown.
SMILES,WNV NS2B-NS3 inh,MT1-MMP reporter,Hsc70
CCOc1ccccc1N1CCN(S(=O)(=O)c2cccs2)CC1,0.53,i,0.6%
COc1ccccc1NC(=O)c1ccc(NC(=O)CSc2nnnn2C)cc1,-0.5,i,0.4%
CC(C)c1c(C#N)c(N)nc(SCC(=O)c2cc3ccccc3oc2=O)c1C#N,-0.68,i,-1.3%
CCOC(=O)CN(C(=O)CN1CCOCC1)c1ccc(Br)cc1,0.15,i,-6.1%
COc1ccc(CCNC(=O)C2CC(=O)N(c3ccccc3)C2)cc1OC (stereo unspecified),-0.81,i,-2.9%
CC1Cc2ccccc2N1C(=O)COC(=O)c1ccc(S(=O)(=O)N(C)C)cc1 (stereo unspecified),-0.78,i,5.0%
Nn1c(SCC(=O)NC2CCCc3ccccc32)nnc1-c1cccs1 (stereo unspecified),-1,i,-2.1%
O=C1CC(N2CCN(C/C=C/c3ccccc3)CC2)C(=O)N1Cc1ccc(N2CCCC2=O)cc1 (stereo unspecified),-0.01,i,6.3%
Cc1ccc2ccc(C3C(=O)c4ccccc4C3=O)nc2c1,.,i,9.3%
COc1ccc(CCNC(=O)CN(C2CCCCC2)S(C)(=O)=O)cc1OC,-0.46,i,2.3%
O=C(CSc1nc2ccccc2c(=O)[nH]1)N1CCOCC1,2.1,i,3.8%
CC(C)(C)NC(=O)NC(=O)COc1ccccc1C#N,-0.05,i,4.2%
O=C(O)c1ccc(C(=O)Nc2cccc(NC(=O)C3CCCO3)c2)cc1 (stereo unspecified),.,i,2.8%
CCOc1ccccc1C1C(C(N)=O)=C(C)Nc2nc(-c3ccc(OC)cc3)nn21 (stereo unspecified),-0.89,i,-2.0%
N#CC1=C2SCN(Cc3ccco3)CN2C(=O)CC1c1ccc(Cl)cc1 (stereo unspecified),-0.1,i,-2.3%
S=C1COC(c2ccccc2)N1c1ccccc1 (stereo unspecified),.,i,0.1%
Cc1ccc(S(=O)(=O)N2CCN(S(C)(=O)=O)C2)cc1,2.4,i,-0.8%
CCn1c(SCC(=O)Nc2nnc(C)s2)nnc1-c1ccncc1,0.49,i,8.5%
COCCNS(=O)(=O)c1cc(F)ccc1OC,0.62,i,-2.0%
CN(c1ccc(S(=O)(=O)N2CCOCC2)cn1)C1CCCCC1,.,i,0.8%
C=C(C)C1CC=C(C)/C(=N/NC(=O)COc2cccc3ccccc23)C1 (stereo unspecified),.,i,4.2%
N#CC1=C(N)C(C#N)(C#N)C2(CCC3(CC2)OCCO3)C2CC3(CC=C12)OCCO3 (stereo unspecified),1.4,i,-9.5%
Cc1ccc(-c2nc3ccccc3s2)cc1S(=O)(=O)N1CCOCC1,.,i,0.9%
Cc1cc2c(cc1C)CSC(c1c(O)ccc3ccccc13)SC2,.,i,3.2%
CCn1c(SCC(=O)c2ccc3ccccc3c2)nnc1-c1cccs1,.,i,-2.0%
CCOC(=O)C1=C(C)Nc2nc(C)nn2C1c1cc(OC)ccc1OC (stereo unspecified),-1.4,i,-1.8%
Cn1c(CNc2nc(-c3ccccc3)cs2)nnc1SCC(=O)OC1CCCCC1,-1.1,i,-1.6%
CN(C)/C=c1\sc2c(C#N)cc(C(=O)c3ccc(Br)cc3)n2c1=O,0.1,i,-92%
Cc1cc(C(=O)OCC(=O)Nc2cccc(S(=O)(=O)N3CCOCC3)c2)c(C)o1,.,i,-2.3%
Cc1nc2c3c(-c4ccccc4)nc(N4CCOCC4)nc3nn2c(C)c1CCC(=O)O,0.46,i,0.1%
Cc1cc(NC(=O)CSc2nnc(-c3ccc(Cl)s3)o2)no1,-1.1,i,0.2%
Cc1ccc(C(=O)Nc2ccc3c(c2)OCO3)cc1S(=O)(=O)N1CCCC1,-0.7,i,6.0%
O=C(CSc1nc2ccccc2s1)N1CCN(C(=O)c2ccco2)CC1,0.52,i,-1.9%
Cn1c(=O)[nH]c(=O)c2c1nc1n2CCCS1,0.89,i,-3.9%
Cc1onc(-c2ccccc2Cl)c1C(=O)Nc1sc2c(c1C(N)=O)CCC(C)C2 (stereo unspecified),.,i,0.3%
Cc1ccc(Oc2nc3c(c(=O)n(Cc4ccccc4F)c(=O)n3C)n2C)cc1,-0.06,i,0.2%
CC(C)C(=O)Nc1ccc(C(=O)NCc2cccnc2)cc1,-0.02,i,-0.7%
Cc1ccc(-c2cc(-c3ccccc3Cl)[nH]n2)c(O)c1,-0.13,i,-1.0%
CC1C2CC(C(CN(C)C)/C2=N/O)C1(C)C (stereo unspecified),0.28,i,-1.6%
COc1ccc(OC)c(S(=O)(=O)N(C)CC(=O)N2CCN(c3cccc(Cl)c3)CC2)c1,-0.28,i,2.3%
O=C(Nc1ccc(N2CCN(C(=O)c3ccc(Cl)cc3)CC2)cc1)c1cccnc1,-0.69,i,2.7%
COC(=O)CCSCC(=O)Nc1nnc(C)s1,0.89,i,4.2%
CCOCCCNC(=O)C1CCCN1S(=O)(=O)c1ccc(Cl)cc1 (stereo unspecified),0.77,i,-1.1%
CCCn1c(=NC(=O)c2ccc3c(c2)OCO3)c(C#N)cc2c(=O)n3cccc(C)c3nc21,-1.1,i,-5.1%
CSc1ccc(S(=O)(=O)NCc2ccc(Cl)cc2)cc1,0.15,i,-5.5%
Nc1ccc(CN2CCN(c3ccc4ccccc4n3)CC2)cc1,-1.2,i,-5.7%
NC(=O)c1ccc(NC(=O)CCCN2C(=O)c3ccccc3C2=O)cc1,.,i,-2.8%
O=C(Cc1ccc(Cl)c(Cl)c1)OCC(=O)c1ccc[nH]1,0.09,i,-14%
Cc1cc(C)cc(OCc2nc3ncc(Br)cc3[nH]2)c1,.,i,-1.8%
CCN(CC)C(=O)COc1ccc(CC(=O)O)cc1OC,-1.4,i,2.1%

# Record cards, from the list above.
# Shown for `CCOCCCNC(=O)C1CCCN1S(=O)(=O)c1ccc(Cl)cc1` (stereo unspecified) = WNV NS2B-NS3 inh = 0.77; MT1-MMP reporter = i; Hsc70 = -1.1%
# Shown for `O=C(Nc1ccc(N2CCN(C(=O)c3ccc(Cl)cc3)CC2)cc1)c1cccnc1` = WNV NS2B-NS3 inh = -0.69; MT1-MMP reporter = i; Hsc70 = 2.7%
# Shown for `CSc1ccc(S(=O)(=O)NCc2ccc(Cl)cc2)cc1` = WNV NS2B-NS3 inh = 0.15; MT1-MMP reporter = i; Hsc70 = -5.5%

# (listing goes on)
SMILES,WNV NS2B-NS3 inh,MT1-MMP reporter,Hsc70
CCOC(=O)c1cc2occc2n1CC(=O)N1CCOCC1,-0.52,i,-12%
CCOc1cccc(C2C(C(=O)c3ccc(C)o3)=C(O)C(=O)N2Cc2ccncc2)c1 (stereo unspecified),0.69,i,2.8%
COc1ccccc1Oc1coc2cc(OC(=O)N3CCOCC3)ccc2c1=O,2.4,i,-3.4%
CN1CCCN(S(=O)(=O)c2ccc3c(c2)OCCO3)CC1,.,i,3.5%
O=C(NC1(C(F)(F)F)N=C2SCCN2C1=O)c1ccccc1 (stereo unspecified),.,i,3.2%
CC(C)CCOc1ccc(C(CC(N)=O)C(=O)O)cc1 (stereo unspecified),.,i,-1.4%
CC(C)C(CCNC(=O)CC(Cc1ccccc1)c1ccco1)c1ccco1 (stereo unspecified),.,i,-4.4%
COc1cccc(Oc2cnc(N)nc2-c2ccc(OC)cc2O)c1,-0.61,i,1.4%
CCCCn1c(SCc2ccc(Cl)cc2)nc2c1c(=O)[nH]c(=O)n2C,0.38,i,3.1%
COc1ccc(N2CCN(C(c3cc(OC)ccc3OC)c3nnnn3CC3CCCO3)CC2)cc1 (stereo unspecified),.,i,-6.3%
CCOC(=O)c1c(NC(C)=O)sc2c(OC)cccc12,.,i,-2.1%
Cc1cc(N(C)C)nc(SC(C)C)n1,-0.63,i,-0.3%
CCOc1cc(C)c(C(C)C)cc1S(=O)(=O)N1CC(C)OC(C)C1 (stereo unspecified),-0.96,i,2.3%
COc1ccc(C)cc1-n1nnnc1SCc1cc(=O)n2cc(C)ccc2n1,-0.99,i,-1.9%
CCc1nc(SCC(=O)c2cccs2)c2oc3ccccc3c2n1,.,i,-0.4%
O=C(CSc1nnc2ccccn12)NC(=O)NC1CCCCC1,-0.86,i,2.8%
O=C(Nc1cccc2ccccc12)N1CC=CCC1,.,i,-1.5%
C=CCn1c2ccccc2c2nnc(SCCCn3c(=O)[nH]c4ccccc43)nc21,.,i,1.3%
CC(C)(C)n1ncc2c(=O)n(CC(=O)NCc3ccccc3)cnc21,-0.15,i,1.7%
O=C(Nc1ccc2c(c1)OCO2)c1ccc(CN2CCOCC2)cc1,1.2,i,4.2%

# A different layout for some results above:
# Every second line gives: WNV NS2B-NS3 inh, MT1-MMP reporter, Hsc70
> Cc1cc(N(C)C)nc(SC(C)C)n1
  -0.63, i, -0.3%
> CCOc1cc(C)c(C(C)C)cc1S(=O)(=O)N1CC(C)OC(C)C1 (stereo unspecified)
  -0.96, i, 2.3%

# Remaining list, next part:
SMILES,WNV NS2B-NS3 inh,MT1-MMP reporter,Hsc70
O=C(CN1CCOCCOCCN(CC(=O)Nc2ccccc2)CCOCC1)Nc1ccccc1,0.52,i,-1.7%
O=C(NCCc1ccccc1)C1CCN(c2nc3ccccc3o2)CC1,-0.7,i,-7.0%
CCC(Sc1nc(C)cc(=O)[nH]1)C(=O)Nc1ccc(Cl)cn1 (stereo unspecified),-0.33,i,-1.0%
CCN1C(=O)C(O)(CC(=O)c2cc(C)ccc2C)c2ccccc21 (stereo unspecified),-0.3,i,0.8%
O=C(c1ccncc1)N(Cc1ccco1)Cc1cc2ccccc2[nH]c1=O,-0.22,i,-1.9%
CCN(Cc1ccccc1)S(=O)(=O)c1ccc(S(=O)(=O)N(Cc2ccccn2)Cc2ccco2)cc1,.,i,3.2%
Cc1[nH][nH]c(=O)c1C(c1ccc(-c2ccc(Cl)cc2)o1)c1c(C)[nH][nH]c1=O,.,i,3.6%
Cc1ccc(NC(=O)Cn2cccc2)cc1C,0.4,i,-2.5%
COC(=O)c1coc(-c2ccc(C)cc2)c1C(=O)OC,1.1,i,5.1%
Cc1c(CCC(C)C)c(-n2ccnc2C)n2c(nc3ccccc32)c1C#N,.,i,2.7%
CC(C)(C)C1CCC(=O)C(C2(O)C(=O)Nc3ccccc32)C1 (stereo unspecified),-0.61,i,-2.8%
CCOC(=O)C1=C(C)NC(=O)NC1c1ccc(OC(=O)c2ccco2)c(OC)c1 (stereo unspecified),-1.2,i,5.8%
CC(=O)c1cccc(NC(=O)c2ccc(NS(=O)(=O)c3c(C)noc3C)cc2)c1,-0.61,i,1.0%
COC(=O)C(C)NS(=O)(=O)c1ccc(NC(C)=O)cc1 (stereo unspecified),0.02,i,-5.2%
Cc1nc(NC(=O)c2ccccc2)sc1-c1csc(N)n1,-1.9,i,0.3%
CCCn1c(N)nc2ccccc21,.,i,-2.2%
Cc1nn(Cc2ccc(Cl)cc2Cl)c(C)c1NC(=O)C1C2CCC(O2)C1C(=O)O (stereo unspecified),.,i,-2.6%
Cc1nc2c3c4c(sc3n3c(SCC(=O)NCc5ccco5)nnc3n2n1)COC(C)(C)C4,-0.58,i,9.7%
O=C(COc1ccccc1)Nc1nc2ccccc2[nH]1,0.18,i,-5.3%
Cc1cc(C)n(C(=O)C23CC4CC(CC(C4)C2)C3)n1,-0.12,i,5.0%

# Of the compounds above, 3 have fluorine:
SMILES,WNV NS2B-NS3 inh,MT1-MMP reporter,Hsc70
COCCNS(=O)(=O)c1cc(F)ccc1OC,0.62,i,-2.0%
Cc1ccc(Oc2nc3c(c(=O)n(Cc4ccccc4F)c(=O)n3C)n2C)cc1,-0.06,i,0.2%
O=C(NC1(C(F)(F)F)N=C2SCCN2C1=O)c1ccccc1 (stereo unspecified),.,i,3.2%

# More compounds.
SMILES,WNV NS2B-NS3 inh,MT1-MMP reporter,Hsc70
CCOc1ccc(C2CC(c3cccc(C)c3)n3nc(N)nc3N2)cc1 (stereo unspecified),-0.38,i,6.3%
CC(=O)N(C(C)=O)c1c(N2CCOCC2)c2ccccc2oc1=O,-1.5,i,3.2%
Cc1ccc(S(=O)(=O)Nc2nc(C)cc(NCCN)n2)cc1,1.9,i,-1.4%
O=C(NCCSCc1ccco1)Nc1ccccc1,0.35,i,4.7%
COc1ccccc1C(=O)NCC(=O)n1nc(C)cc1C,-0.48,i,7.9%
CCOc1cc(/C=N/n2cnnc2)ccc1O,-0.89,i,-4.3%
O=C(CSc1ncnc2c1oc1ccccc12)N1CCN(c2ccccc2)CC1,0.02,i,-0.7%
COc1ccccc1-n1c(C)nc2cc(C(=O)O)ccc21,.,i,6.3%
OCCN=C(c1ccccc1)C12CN3CN(CN(C3)C1)C2,-1.2,i,0.1%
CCOC(=O)C(C)n1cnc2c(nnn2Cc2ccc(Cl)cc2)c1=O (stereo unspecified),-0.35,i,-7.0%
COc1ccc(CCNS(=O)(=O)c2ccc3c(c2)OCCO3)cc1,-0.76,i,2.0%
CCOc1ccccc1NC(=O)C1C2C=CC(C2)C1C(=O)O (stereo unspecified),.,i,7.2%
CCN(CCCNC(=O)CN(C)S(=O)(=O)c1cccc2nsnc12)c1cccc(C)c1,-1.4,i,-2.6%
CCN(C(=O)c1cn(CC)c(=O)c2cc(OC)c(OC)cc12)c1ccccc1C,1.3,i,-0.3%
Cc1cc(NS(=O)(=O)c2ccc(NC(=O)C(C(C)C)N3C(=O)c4ccccc4C3=O)cc2)nc(C)n1 (stereo unspecified),.,i,8.4%
O=C(Nc1nccs1)c1cccc(NC(=O)C2CC2)c1,0.86,i,1.1%
